TRPML1 blocker: inhibitors of human TRPML1 channel | TRPML1-inducible cells, Ca2+ dye fluorescence, FDSS; hits give low values; inhibition of EC80 agonist-evoked calcium signal | activity change, negative = inhibition, % (test concentration not listed) | hit rate 0.02% among 390,000; in the data active means activity change below about -50%; inconclusive means about -30% to -50%; inactive means above about -30%;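 further: stimulus is agonist 54-4 at its EC80 concentration; on the % scale 0 is the no-effect control and ±100 the full control effect; compound concentration not given in the record; the text of the record puts the active cut at -80%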
Target sequence (Q9GZU1 whole entry, looked up): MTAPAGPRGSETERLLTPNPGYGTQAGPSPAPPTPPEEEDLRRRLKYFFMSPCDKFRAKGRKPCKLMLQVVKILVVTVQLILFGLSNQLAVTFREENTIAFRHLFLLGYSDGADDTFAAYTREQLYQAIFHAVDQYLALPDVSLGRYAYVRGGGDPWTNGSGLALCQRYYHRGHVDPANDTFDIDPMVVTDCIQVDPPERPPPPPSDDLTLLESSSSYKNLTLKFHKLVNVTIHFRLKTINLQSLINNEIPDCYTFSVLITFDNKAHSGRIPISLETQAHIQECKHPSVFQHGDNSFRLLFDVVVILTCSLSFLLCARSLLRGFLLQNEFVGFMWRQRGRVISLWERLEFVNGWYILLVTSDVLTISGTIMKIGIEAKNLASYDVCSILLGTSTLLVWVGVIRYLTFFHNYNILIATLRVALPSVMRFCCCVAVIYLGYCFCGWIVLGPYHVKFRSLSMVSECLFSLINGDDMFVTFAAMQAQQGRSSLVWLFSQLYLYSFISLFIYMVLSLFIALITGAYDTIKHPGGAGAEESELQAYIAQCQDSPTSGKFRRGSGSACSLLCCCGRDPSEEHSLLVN
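TRPML1-DL cells, Tet-induced overnight (~16 h, 37 °C) at 1,500 cells/well, were loaded with Ca8 no-wash dye plus quencher for 45-90 min at room temperature. Compounds were pinned during FDSS kinetic reading; agonist 54-4 at EC80 (4 uM final) then added.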
TRPML1 ag: agonists of human TRPML1 channel; Q9GZU1; TRPML1-expressing cells, Ca2+ dye fluorescence, FDSS; host cell line not named in the record; reference of the full effect not given here; activation, % (no concentration beside the values); hit rate 0.12% among 410,000; AID 624414; in the data active = activation above about 50%; inconclusive = about 30% to 50%; inactive = below about 30%; further: 0% is about no effect; the text of the record puts the active cut at 80%
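TRPML1-DL cells, Tet-induced overnight (~16 h, 37 degrees C), loaded 45-90 min at room temperature with Ca8 no-wash calcium dye plus quencher. FDSS fluorescence: 10 s baseline, compound pin-transfer, 110 s agonist read, then EC80 54-4 (4uM final) and 110 s antagonist read.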
* hit, by the source's call.

SMILES | TRPML1 blocker | TRPML1 ag
Cc1oc(-c2ccccc2)nc1CNC(=O)Nc1ccccc1 | -4 | 2.3
CCN(CC)c1nc2c(-c3cccc(Br)c3)nnn2c2ccccc12 | -1 | -0.6
CCOc1ccc(N2CC(NC(=O)C3CCCCC3)CC2=O)cc1 (stereo not given) | -11 | -0.1
Cc1ccc(C(=O)CSc2nc3cc(C(=O)NC4CCCC4)ccc3c(=O)n2CC2CCCO2)c(C)c1 (stereo not given) | -7 | -0.6
CCC1=Nc2cc(C(=O)NCc3ccccc3OC)ccc2Sc2ccc(Cl)cc21 | 33 | 1.5
COc1ccc(-c2noc(N(c3cccc(Cl)c3)c3nc(-c4ccc(OC)c(OC)c4)no3)n2)cc1OC | 29 | -0.2
CCC1CCCCN1C(=O)CSc1n[nH]c(-c2ccccc2)n1 (stereo not given) | -7 | -0.1
Cc1csc2nc(-c3ccc(NS(=O)(=O)c4cccc(F)c4)cc3)cn12 | -5 | 1.9
Cc1ccc(C(=O)NC2(C(F)(F)F)N=C(c3ccccc3)N(C3CCCCC3)C2=O)cc1 (stereo not given) | 4 | -0.9
O=C(CCOc1ccccc1)N(Cc1cccnc1)c1nc2c(F)cccc2s1 | 22 | -0.6

The closing 6 entries of the part before lead into the next.
SMILES | TRPML1 blocker | TRPML1 ag
CCC1=Nc2cc(C(=O)NCc3ccccc3OC)ccc2Sc2ccc(Cl)cc21 | 33 | 1.5
COc1ccc(-c2noc(N(c3cccc(Cl)c3)c3nc(-c4ccc(OC)c(OC)c4)no3)n2)cc1OC | 29 | -0.2
CCC1CCCCN1C(=O)CSc1n[nH]c(-c2ccccc2)n1 (stereo not given) | -7 | -0.1
Cc1csc2nc(-c3ccc(NS(=O)(=O)c4cccc(F)c4)cc3)cn12 | -5 | 1.9
Cc1ccc(C(=O)NC2(C(F)(F)F)N=C(c3ccccc3)N(C3CCCCC3)C2=O)cc1 (stereo not given) | 4 | -0.9
O=C(CCOc1ccccc1)N(Cc1cccnc1)c1nc2c(F)cccc2s1 | 22 | -0.6
CSc1ncc(C(=O)Nc2ccccc2C(=O)c2ccccc2)c(C(F)(F)F)n1 | 32 | 3.8
COc1ccc(CCNc2nc(-c3ccc(C)cc3)cc(C(F)F)n2)cc1OC | -21 | -0.5
Cc1ccc(NC(=O)CC(C)S(=O)(=O)c2ccc3c(c2)NC(=O)CO3)c(C)c1 (stereo not given) | -1 | 4.5
Cn1c(C(=O)N2CCC(C(=O)N3CCN(c4ccccc4)CC3)CC2)cc2sccc21 | 0 | 0.3
Cc1nc(SCC(=O)Nc2ccccc2C)cc(-c2ccccc2)n1 | 12 | 1.2
Cc1c(C(=O)OCC2CCCCC2)[nH]c2c1C(=O)CC(c1ccc(Cl)cc1)C2 (stereo not given) | -4 | 0.3
Cc1ccc(Cl)cc1Nc1nn2c(=O)c3ccc(C(=O)NC(C)c4ccccc4)cc3nc2s1 (stereo not given) | -13 | 1.4
CCOc1cc(C2NC(=O)c3c(sc4c3CCN(C)C4)N2)ccc1OC(=O)c1ccc(Br)cc1 (stereo not given) | 20 | 1.7
COc1ccc(N2CCN(C(=O)CN3C(=O)CSc4c3c(C)nn4-c3ccccc3)CC2)cc1 | -6 | -0.8
CCCn1c(SCc2nc(-c3ccc(OC)c(OC)c3)no2)nnc1-c1ccccc1 | 8 | 0.2
CCOc1ccc(NC(=O)Cn2c(=O)c(CNc3ccccc3)cc3cc4c(cc32)OCCO4)cc1 | -1 | 0.8
CC1Cc2ccccc2N1S(=O)(=O)c1nnc(NC(=O)c2ccccc2)s1 (stereo not given) | 11 | 1.0
COc1ccc(OC)c(-c2cc(C(=O)Nc3cnn(Cc4ccc(Cl)cc4Cl)c3)no2)c1 | -10 | 0.4
COc1ccc(Cl)cc1NC(=O)CSc1ccc2nnc(CCNS(=O)(=O)c3ccccc3)n2n1 | -5 | -0.6
CCC(Oc1ccccc1)C(=O)Nc1ccc(OCc2cc(=O)n3ccccc3n2)cc1 (stereo not given) | -6 | 0.1
COCCNC(=O)CSc1nc(-c2ccccc2)[nH]c1-c1ccc(C)cc1 | 3 | -0.6
CCOC(=O)c1ccccc1NC(=O)Cn1cc(C(=O)c2cccc(OC)c2)c(=O)c2ccc(C)nc21 | 9 | 1.3
Cc1cc(C)cc(NC(=O)N2CCC(CN3CCOCC3)CC2)c1 | -25 | 0.4
COc1ccc(NC(=O)Cn2c(=O)oc3cc(S(=O)(=O)N4CCCCC4C)ccc32)cc1 (stereo not given) | 16 | 1.2
Cc1cccc(C(=O)Nc2ccccc2-c2nc(-c3ccccc3)no2)c1 | 1 | -0.1
CC(C)CNS(=O)(=O)c1ccc(N2CCCCS2(=O)=O)cc1 | -9 | -0.2
Cc1cccc(NC(=O)C(=O)c2cc(C)n(-c3ccccc3)c2C)c1C | 23 | 0.3
COc1ccc(N(C)C(=O)C2CCN(S(=O)(=O)c3cc(Br)cc4c3N(C(C)=O)CC4)CC2)cc1 | -9 | 1.1
CCc1ccc(C(=O)c2cn(CC(=O)NC3CCCCC3)c3nc(C)ccc3c2=O)cc1 | 10 | 1.3
Cc1ccc2c(=O)cc(CSc3ccccc3)[nH]c2c1C | -12 | 1.8
CCOc1ccc2nc(N(Cc3cccnc3)C(=O)c3ccc4c(c3)OCCO4)sc2c1 | 14 | -0.7
CCCSc1ncc(Cl)c(C(=O)N2CCN(c3cccc(Cl)c3)CC2)n1 | -24 | 5.0
CCOc1ccc(NC(=O)c2ccc3nc(C(C)C)oc3c2)cc1 | 24 | 4.0
COc1ccc(-c2cc(C(C)=O)c(C)n2CCC(=O)Nc2ccc(C)c(Cl)c2)cc1 | -13 | 1.5
Cc1cc(C)c(NC(=O)C(=O)NCC(c2cccnc2)N2CCN(c3ccccc3F)CC2)c(C)c1 (stereo not given) | -13 | -0.5
Cc1cccc(NC(=O)C(=O)NCC(c2cccnc2)N2CCN(Cc3ccccc3)CC2)c1 (stereo not given) | 10 | 1.1
COCc1nn2cc(-c3ccc(C)cc3)nc2s1 | 32 | -0.7
Cc1ccc(C)c(S(=O)(=O)c2cn(Cc3ccccc3)c3cc(N4CCCC4)c(F)cc3c2=O)c1 | -3 | 1.4
COc1ccc(C(CNC(=O)c2oc3ccccc3c2C)N2CCCCC2)cc1 (stereo not given) | 13 | -0.7
COc1ccc(OC)c(NC(=O)c2nc(S(=O)(=O)Cc3ccc(F)cc3)ncc2Cl)c1 | 14 | 3.8
CCOCCCn1c(SCC(=O)Nc2ccccc2CC)nc2ccccc2c1=O | 0 | 1.7
Cc1ccccc1C(=O)Nc1ccc(OCc2cc(=O)n3cccc(C)c3n2)cc1 | 6 | -0.1
COc1ccccc1NC(=O)c1c(NC(=O)COc2ccccc2)sc2c1CCCCC2 | -12 | -0.1
Cc1nn(CC(=O)NCc2cccc(F)c2)c(=O)c2c(C)n(-c3ccc(Cl)cc3)nc12 | 23 | 0.4
COC(=O)c1c(SCC(=O)Nc2ccccc2OC)[nH]c2ccccc2c1=O | 7 | -0.5
CC1CCN(S(=O)(=O)c2ccc3c(ccc(=O)n3CC(=O)Nc3cccc(F)c3)c2)CC1 | -4 | 1.0
CCN(C(=O)CSc1nc2ccccc2nc1Cc1ccc(F)cc1)c1cccc(C)c1 | 59 | 4.2
CCOc1ccc(NC(=O)CC2C(=O)OCCN2CC)cc1 (stereo not given) | -3 | 1.4
Cc1ccc(-n2c3c(c(=O)[nH]c2=O)C(NC(=O)c2ccccc2C)(C(F)(F)F)C(=O)N3)cc1 (stereo not given) | 21 | -0.6
CC(C)(C)c1ccc(S(=O)(=O)N2CCC(c3ccncc3)CC2)cc1 | 25 | 1.6
Cc1cc(NS(=O)(=O)c2ccc(NC(=O)COc3ccccc3Br)cc2)no1 | 19 | -1.2
CCc1ccc2oc(-c3cc(NC(=O)c4cccs4)ccc3Cl)nc2c1 | -6 | 0.8
CCOc1ccc(CNC(=O)c2ccccc2NC(=O)c2nsc3ccccc23)cc1 | 0 | 1.9
Cc1ccc2nc(-c3ccc(NC(=O)C(F)(F)F)cc3)sc2c1 | 5 | 1.9
CCOc1ccccc1Nc1nc(-c2ccc(C)cc2)c(CC(=O)O)s1 | -2 | 0.1

The results go on:
SMILES | TRPML1 blocker | TRPML1 ag
COc1ccc(C)cc1NC(=O)CN1C(=O)COc2ccc(S(=O)(=O)NC3CCCC3)cc21 | -10 | 0.9
CCCn1c(=O)sc2cc(NC(=O)c3ccccc3OCC)ccc21 | -26 | -1.2
CC(C)CC(=O)N(Cc1ccccc1)S(=O)(=O)c1ccc2c(c1)oc(=O)n2C | -24 | 4.9
Cc1c(C(=O)N2CCOCC2)oc2c1-c1nn(CC(=O)NCc3cccc(Cl)c3)cc1CC2 | 29 | 0.9
CCOC(=O)C1=C(CS(=O)(=O)c2ccc(F)cc2)NC(=O)NC1c1ccc(OCC)c(OC)c1 (stereo not given) | 4 | -1.1
COc1ccc(N2CCN(C(CNC(=O)c3ccc(OC)c(OC)c3)c3cccnc3)CC2)cc1 (stereo not given) | 4 | 0.3
COc1ccc(NC(=O)NCCc2c(C)nn(C)c2C)c(OC)c1 | 13 | -0.5
Cc1ccc(C(=O)c2cn(Cc3ccccc3)c3c(F)cc(F)cc3c2=O)cc1 | -8 | 0.5
Cc1cccc(N2CCN(C(=O)CN3C(=O)COc4ccc(S(=O)(=O)N5CCCC5)cc43)CC2C)c1 (stereo not given) | -1 | 1.6
COc1cc(NS(=O)(=O)c2cc(Br)cc3c2N(C(C)=O)C(C)C3)cc(OC)c1 (stereo not given) | 3 | 3.4
Cc1noc(Cn2c(=O)c3ccccc3n(CC(=O)Nc3ccc(C(C)C)cc3)c2=O)n1 | -9 | -0.6
CCC1CN(C(=O)N2CCC(C(=O)NCCc3ccc(Cl)cc3)CC2)c2ccccc2O1 (stereo not given) | 25 | 2.2
CCOC(=O)c1cccc(NC(=O)C2CCN(S(=O)(=O)c3cn(C)cn3)CC2)c1 | -28 | 0.6
COc1ccc(Cl)cc1Nc1ncnc2c1nc1n2CCCC1 | 1 | 1.2
Cc1ccccc1OCCCCn1c(-c2ccc(Cl)cc2)nc2ccccc2c1=O | -5 | -0.7
O=C(Nc1nnc2n1CCS2)c1ccc(F)cc1F | -2 | -0.8
O=S(=O)(c1cccc(C(F)(F)F)c1)N1CCC(Oc2ccc(-n3cnnn3)cc2)CC1 | 17 | 3.5
Cc1cccc(N2CCN(C(=O)Cn3nc(C)c4sc5ccccc5c4c3=O)CC2)c1C | -9 | -0.3
Cc1ccc(NC(=O)Cn2c(=O)n(-c3ccc(C)cc3)c(=O)c3c2cnn3C)cc1 | 10 | -0.3
O=C(COc1ccccc1)NCc1ccc2c(c1)CCN2C(=O)c1ccc(Cl)cc1 | 1 | 0.5
Cc1ccc(Cl)cc1N(C)C(=O)c1cc2ccc3cccnc3c2[nH]1 | -2 | 1.4
Cc1ccc(CNc2ccc(-c3nc(C(C)C)no3)cc2[N+](=O)[O-])cc1 | 12 | -0.5
COc1ccccc1NC(=O)Cn1c(=O)n(Cc2ccccc2)c(=O)c2sc3ccccc3c21 | 22 | -0.7
COc1ccc(N(C)S(=O)(=O)c2ccc3c(c2)n(C)c(=O)c(=O)n3C)cc1 | -17 | -1.0
CC1CCC(NC(=O)c2ccc3c(c2)N(Cc2cccc(Cl)c2)C(=O)c2ccccc2S3=O)CC1 (stereo not given) | -12 | 0.1
Cc1ccccc1NC(=O)CSc1nc2c(oc3ccccc32)c(=O)n1Cc1ccco1 | 3 | 0.4
COc1cccc(CNC(=O)c2ccc(CN3CC(=O)N4CCCCC4C3=O)cc2)c1 (stereo not given) | 2 | 1.3
O=C(Cn1c(=O)n(-c2ccccc2)c(=O)c2c3c(sc21)CCCC3)Nc1ccccc1 | 2 | 1.3
CCN(CC)c1cc(C)c2cc(NC(=O)/C=C/c3ccccc3Cl)ccc2n1 | 11 | 0.6
COc1ccc(NC(=O)C2=CC(c3ccc4c(c3)OCO4)=NS(=O)(=O)N2C)cc1OC | 24 | 1.3
O=c1c2sc3ccccc3c2n(Cc2ccccc2F)c(=O)n1-c1ccccc1Cl | -9 | -0.7
CCC(Oc1ccccc1F)C(=O)Nc1c(C(=O)c2ccccc2)oc2ccccc12 (stereo not given) | 2 | 0.3
COc1ccc(-c2[nH]c3c(c2-c2c(-n4cccc4)n(C)c(=O)[nH]c2=O)c(=O)[nH]c(=O)n3C)cc1F | -16 | -0.3
CCCOc1ccc(NC(=O)CC2C(=O)N(c3ccc(Cl)cc3)C(=O)N2CCc2ccncc2)cc1 (stereo not given) | 16 | 0.4
CC(C)Oc1ccc(CNC(=O)c2ccc(NC(=O)N3CCSc4ncccc43)cc2)cc1 | 3 | -0.2
CCn1c2c(c(=O)n3ncc(C(=O)N4CCN(c5ccc(C(C)=O)cc5)CC4)c13)CN(Cc1ccc(OC)cc1)CC2 | -20 | 1.6
O=C(NCc1cccn1Cc1ccccc1)Nc1cccc(C(F)(F)F)c1 | 10 | 3.6
COc1ccc(OC)c(CNC(=O)C2CCN(c3ncnc4c3nc3n4CCCCC3)CC2)c1 | 6 | -0.2
Cc1ccc(CSC2=NC(C)(C)Nc3ccccc32)c(C)c1 | 23 | 2.4
O=C(COc1ccccc1Cl)Nc1nc(-c2ccc(F)cc2)ns1 | -15 | 0.7
CC(C)(C)n1ncc2c(=O)n(Cc3c(F)ccc(F)c3Cl)cnc21 | -5 | 2.7

High-throughput results as filed in PubChem BioAssay.

The list is partial; rates above refer to the full screens.
